Screening results as filed in PubChem.
BasE inh: inhibitors of Acinetobacter baumannii siderophore enzyme BasE | purified BasE, fluorescence polarization binding displacement | inhibition, % (test concentration not listed) | 84,000 tested, 0.1% active;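 active = both replicates above 25% with normal brightness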;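 note: 0% = negative plate control signal and 100% = positive plate control signal; stock transfer was 100 nL into about 30 µL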
KSHV LANA nucl: LANA-nucleosome interaction inhibition | FITC-LANA1-23 / chicken nucleosome fluorescence polarization; active compounds read low | z-score (test concentration not listed) | 51,000 tested, 0.3% active;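 active = both repeat wells score below -2 in polarization z-score versus plate sample wells, excluding overly bright wells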;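 note: 100 nL library stock added to about 30 µL; numbers are from one replicate; some results filed as inactive read as strong as hits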
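Assay system: FITC-LANA peptide and chicken nucleosomes; input: 240 nM purified chicken nucleosomes (480 nM peptide binding sites), final; also added: 50 nM FITC-LANA1-23 probe; medium: TEN-BT buffer, pH 7.5; doses: pin-transferred compound, 100 nL; times: 10–45 min, room temperature; technique: fluorescence polarization; replication: duplicates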
Active calls of the source: *; . = no result given; & = joins results of further samples. Only part of the results is shown; rates above refer to the full screens.

The first seven compounds as a preview:
SMILES	BasE inh	KSHV LANA nucl
S=c1[nH]c(-c2ccccc2)cn1/N=C/c1ccc(N2CCOCC2)cc1	0.1	.
CCOC(=O)c1ccc(NC(=O)NC2CC3CCC(C2)N3C(=S)NCc2ccco2)cc1 (stereo not given)	0.4	0.373
Cc1csc(NC(=O)NCC2CCCC(CNC(=O)Nc3nc(C)cs3)C2)n1 (stereo not given)	-1.7	.
Cc1ccc(C2(c3ccc(C)cc3)NC(=O)N(Cc3c(C)noc3C)C2=O)cc1	-1.2	.
CC(=O)Oc1ccc2occ(C(=O)c3ccc(Cl)cc3)c2c1	2.9	0.399
N#Cc1ccc(CO/N=C(\N)c2ccccc2)cc1	0.3	.
O=C(NN=c1c(=O)c2ccccc2c1=O)c1ccncc1	0.6	-1.12

All compounds of this part, from the first entry:
SMILES	BasE inh	KSHV LANA nucl
S=c1[nH]c(-c2ccccc2)cn1/N=C/c1ccc(N2CCOCC2)cc1	0.1	.
CCOC(=O)c1ccc(NC(=O)NC2CC3CCC(C2)N3C(=S)NCc2ccco2)cc1 (stereo not given)	0.4	0.373
Cc1csc(NC(=O)NCC2CCCC(CNC(=O)Nc3nc(C)cs3)C2)n1 (stereo not given)	-1.7	.
Cc1ccc(C2(c3ccc(C)cc3)NC(=O)N(Cc3c(C)noc3C)C2=O)cc1	-1.2	.
CC(=O)Oc1ccc2occ(C(=O)c3ccc(Cl)cc3)c2c1	2.9	0.399
N#Cc1ccc(CO/N=C(\N)c2ccccc2)cc1	0.3	.
O=C(NN=c1c(=O)c2ccccc2c1=O)c1ccncc1	0.6	-1.12
CCOC(=O)/C=C1\CC(=O)Nc2cc(C)c(C)cc2N1	2.4	.
CCOC(=O)c1c[nH]c2cc(F)cc(F)c2c1=O	1.3	-0.63
Cc1ccc(OCc2nnc(SCC(=O)Nc3ccc4c(c3)OCO4)n2C(C)C)c(C)c1	6.2	-1.28
CC(CNC(C)c1ccccc1)C(=O)O (stereo not given)	3.0	0.782
Cn1c(=O)c(=O)n(C)c2cc(S(=O)(=O)CCC(=O)N3CCOc4ccccc43)ccc21	0.3	1.14
COc1ccc(Cl)cc1NS(=O)(=O)N(C)C	0.7	0.919
COC(=O)c1ccc2c(c1)C(=O)N(C1CCCCC1)C2=O	-2.1	2.29
CC(OC(=O)c1cccnc1SC(C)C(N)=O)C(N)=O (stereo not given)	3.7	.
COC(=O)C1=C(C)Nc2c(c(=O)n(C)c(=O)n2C)C1c1cccc(OCc2ccccc2)c1 (stereo not given)	2.2	.
O/N=C1/C2CC3C1C14CC(C2/C1=N\O)C34 (stereo not given)	0.8	-0.24
Cc1cc(-c2ccccn2)n[nH]c1=O	0.2	.
COC(=O)c1ccc(N2C(=O)CC(SCCc3nc4ccccc4[nH]3)C2=O)cc1 (stereo not given)	5.0	-0.247
CCN1CCN(C(=O)c2cccs2)CC1	-2.2	-0.497
C=CCn1c(=O)sc2ccccc2c1=O	.	-0.514
Cc1cccc(N2C(N)=NC(N)=NC23CCCCC3)c1	1.5	.
CCCCCC(=O)Nc1cc2c(cc1C(=O)O)OCCO2	1.3	.
O=C(Cn1nnc(-c2ccncc2)n1)NCCc1ccccc1	-2.8	0.0015
COc1ccc(C)cc1NC(=O)CSC1CCCC1	0.6	.
O=C(O)Cn1cnc2ccccc2c1=O	-3.5	1.4
O=C(Nc1ccc(N2CCN(C(=O)c3ccccc3)CC2)cc1)c1ccccc1	0.9	-0.841
Cc1ccn2cc(C(=O)NCc3ccccc3)nc2c1	-2.8	-0.619
COC(CNC(=O)c1c(O)nc2ccccn2c1=O)OC	1.8	-1.05
Cc1ccc(C(C)C)c(OCCn2ccnc2)c1	-3.3	2.49

As a working copy, some entries already given.
SMILES	BasE inh	KSHV LANA nucl
O=C(Nc1ccc(N2CCN(C(=O)c3ccccc3)CC2)cc1)c1ccccc1	0.9	-0.841
Cc1ccn2cc(C(=O)NCc3ccccc3)nc2c1	-2.8	-0.619
COC(CNC(=O)c1c(O)nc2ccccn2c1=O)OC	1.8	-1.05

(more compounds)
SMILES	BasE inh	KSHV LANA nucl
COC(=O)c1ccc(CN2CCC(c3nc4ccccc4s3)CC2)o1	0.4	.
COc1ccc(CCN(C)C/C=C/c2ccc(N(C)C)cc2)cc1OC	0.0	0.802
CN=c1scc(-c2ccc(Br)s2)n1/N=C/c1ccc(OCC(=O)N2CCOCC2)c(OC)c1	1.9	.
CCOc1cc(CN2CCCCC2)ccc1OC	-1.7	-0.116
CCOc1ccccc1N1CCN(C(=O)[C@@H]2CCCN2C(=O)c2cccs2)CC1	1.1	.
COc1ccccc1OCCn1c(=N)n(CCOc2ccccc2)c2ccccc21	-11.4	0.467
CCOC(=O)CSc1nc2cc(Cl)c(Cl)cc2n1CC	1.0	.
Cc1cccc(S(=O)(=O)NC2CCCCC2C)c1 (stereo not given)	-1.9	.
CCC(C(=O)Nc1cccc(C(=O)NC2CC2)c1)n1nnc(-c2ccc(Cl)cc2)n1 (stereo not given)	-4.6	.
Cc1c(NC(=O)COCc2cc(-c3cccs3)on2)c(=O)n(-c2ccccc2)n1C	-0.9	0.49
COc1cccc(C(=O)NNc2cc(C(F)(F)F)ccn2)c1	0.0	0.744
COc1ccc(OC)c(NC(=O)C2CCCNC2=O)c1 (stereo not given)	0.7	.
Cc1cc(C)c2c(n1)sc1c(=S)nc[nH]c12	-0.8	0.294
O=C(Oc1ccccc1/C=C1/N=C2CCCCCN2C1=O)c1ccccc1Cl	0.4	.
NS(=O)(=O)c1ccc(CCNCc2ccccn2)cc1	0.3	0.573
Cc1ccc(-c2nc(C#N)c(NCCN3CCCCC3)o2)cc1	-2.1	-0.665
O=S(=O)(Nc1ccccc1Cl)c1ccc2nc(Nc3ccc4c(c3)CCC4)oc2c1	0.7	.
CCOC(=O)C1CCN(C2CC(=O)N(c3c(C)cccc3C)C2=O)CC1 (stereo not given)	-4.2	.
CC(C)(N)COc1nonc1N	1.9	-0.131
O=C1CON(c2ccc(Cl)c(Cl)c2)C(=O)N1	-3.0	.
Cn1c(C(=O)NCCCc2ccccc2)cc2oc3ccccc3c21	-1.8	0.978
C=CCn1c(C)cc(C(=O)COC(=O)c2c(C)nn(Cc3ccccc3)c2C)c1C	-1.0	.
O=C(/C=C/c1cccs1)N1CCN(c2ccccc2)CC1	1.5	0.426
CC(Nc1ncnc2sc3c(c12)CCC3)c1ccc(S(N)(=O)=O)cc1 (stereo not given)	1.4	.
CC1CN=C(NS(=O)(=O)c2ccccc2)N1 (stereo not given)	-0.1	.
COC(=O)c1ccc(N=NN2CCCCC2)cc1	0.9	1.86
COC(=O)c1ccc(OCC(=O)c2ccccc2OC)cc1	1.2	.
N#CC(C(=O)NCc1ccccc1)c1ccccc1 (stereo not given)	0.1	1.52
CN1C(=O)/C(=C(/C#N)C(=O)NCCc2ccccc2)c2ccccc21	1.5	.
Cc1cc2n(n1)CCCN2Cc1ccc(C(=O)N2CCc3ccccc32)cc1	-1.8	0.252
Cc1cc(C(=O)OCCN2CCN(C3=NS(=O)(=O)c4ccccc43)CC2)c2ccccc2n1	-3.0	.
CCOC(=O)c1c(C)oc2nc(C)nc(NC3CCN(C(=O)OCC)CC3)c12	1.0	.
CCOc1ccc(-c2nnc(-c3ccc(Br)cc3)o2)cc1OCC	-1.7	1.21
O=C(CSc1nnc(CNc2ccccc2)o1)N1CCc2ccccc21	3.8	-0.766
O=C(/C=C/c1nc2ccccc2o1)OCc1cccc(Cl)c1	-1.5	.
N#Cc1cc(C(=O)Nc2ccccc2)c(N)[nH]c1=S	-2.2	.
Cc1ccc2c(CSc3nnc(C4CC4)n3C3CC3)cc(=O)oc2c1	0.0	.
CCC(=O)NC(=S)Nc1ccc2oc(-c3ccccc3Cl)nc2c1	-0.5	0.515
CN(c1ccc(Br)cc1)S(=O)(=O)c1ccc2c(c1)CCN2C(=O)CCC(=O)O	1.0	-1.35
O=C(CSc1nc2ccccc2c(=O)n1Cc1ccccc1)NC1CCS(=O)(=O)C1 (stereo not given)	1.5	.
Cc1nc2c(ccc3nc(NC(=O)c4cccc(Oc5ccccc5)c4)sc32)s1	1.6	.
COc1cc(NS(=O)(=O)c2ccc(N)cc2)ncn1	0.5&0.2	0.0775&0.103&0.202
Cc1onc(-c2c(Cl)cccc2Cl)c1NC(=O)OCCOc1cc(C(F)(F)F)ccn1	1.2	.
CC1CCN(C(=O)CN2C(=O)C(C)(C)Oc3ccc(C(=O)NC(C)C)cc32)CC1	1.5	-0.386
O=C1CC(c2ccco2)CC2=C1C(c1ccccc1)n1nc(C(F)(F)F)nc1N2 (stereo not given)	0.9	-0.473

Reprinted at random: four records from the list, in no set order.
SMILES	BasE inh	KSHV LANA nucl
O=C(CSc1nnc(CNc2ccccc2)o1)N1CCc2ccccc21	3.8	-0.766
Cc1ccc2c(CSc3nnc(C4CC4)n3C3CC3)cc(=O)oc2c1	0.0	.
COc1cc(NS(=O)(=O)c2ccc(N)cc2)ncn1	0.5&0.2	0.0775&0.103&0.202
CCOC(=O)c1c(C)oc2nc(C)nc(NC3CCN(C(=O)OCC)CC3)c12	1.0	.

Next records follow.
SMILES	BasE inh	KSHV LANA nucl
C=C1C(C(=O)Nc2ccc(F)cc2)C1C(=O)Nc1ccc(F)cc1 (stereo not given)	-0.9	.
Cc1ccc(NC(=O)c2cccc(S(C)(=O)=O)c2)cc1	-3.3	.
CCC(C)N=CC1=C(O)CC(C)(C)CC1=O (stereo not given)	2.4	-0.559
O=c1[nH]c2ccc(Cl)cc2c(-c2ccccc2)c1N1CCN(Cc2ccc3c(c2)OCO3)CC1	6.4	-0.163
CCS(=O)(=O)c1nc(S(=O)(=O)c2ccc(Cl)cc2)c(N2CCN(CCO)CC2)s1	1.2	-0.438
N/C(=N\OCc1noc(-c2ccsc2)n1)c1ccc(C(F)(F)F)cc1	0.1	0.279
COc1ccc(-c2noc(C3CCCN(C(=O)Nc4ccccc4)C3)n2)cc1 (stereo not given)	-0.1	0.521
Nc1ccc(N=Nc2ccccc2)c(N)n1	-1.0&-0.8	-0.263&-0.507&0.246
Cc1ccc2c(CSc3cccc[n+]3[O-])cc(=O)oc2c1	-0.5	.
COc1cc2c(cc1NC(=O)CSc1nnc(Cc3cccs3)n1Cc1ccco1)oc1ccccc12	-4.0	2.72
O=C1N=c2ccccc2=C1c1c(O)n(-c2cccc(F)c2)[nH]c1=O	0.0	0.555
Cc1cc(C)n(-c2ccc(C(=O)OCC(=O)NCC3CCCO3)cc2)n1 (stereo not given)	1.0	.
COc1ccc(-c2cc(C(=O)OCC(=O)NCc3ccco3)c3c(C)nn(-c4ccccc4)c3n2)cc1	0.1	.
CCc1ccc(OCCCC(=O)Oc2ccc3c(c2)oc(=O)c2ccccc23)cc1	1.0	.
N#CCc1c(C#N)c(N)nc(SC(=N)N)c1C#N	-38.7	.
CNc1c(NC(=O)C(C)(C)C)c(=O)oc2ccccc12	1.2	0.146
Cc1cnc(NC(=O)Cc2ccc(OCc3c(C)noc3C)cc2)s1	1.2	.
O=C(CN1C(=O)S/C(=C\c2ccc(F)cc2)C1=O)Nc1ccc(S(=O)(=O)NCc2ccco2)cc1	1.8	.
CCc1ccc(-c2nc3ccccc3c(=O)o2)cc1	0.1	.
COc1cc(-c2nnc(CSc3nnc(C)s3)o2)cc(OC)c1OC	-1.9	.
O=C(CCOc1ccccc1)OCc1ccccc1F	0.1	.
CN1/C(=C/C=C(C#N)C#N)C=Cc2ccccc21	0.6	.
CC(=O)NC(Cc1cccc(C)c1)C(=O)NC1CCN(c2nc(C)cc(C)c2C#N)CC1 (stereo not given)	-1.2	-0.525
COc1ccc(-c2cc(C(F)(F)F)n3nc(C(=O)NCCN4CCOCC4)c(Br)c3n2)cc1	-0.1	-1.42
O=C(c1ccc(N2CCCS2(=O)=O)cc1)N1CCCC1	0.8	.
COc1cccc(NC(=O)N2Cc3ccccc3Oc3ncccc32)c1	-0.1	1.15
CCN1/C(=N\N)c2cccc3cccc1c23	-4.3	-0.463
O=C1NCC(NC(=O)C(F)(F)F)c2cc3c(cc21)OCO3 (stereo not given)	.	-1.61
Cc1ccc(C(=O)CC(SCc2ccco2)c2cccs2)cc1 (stereo not given)	-1.1	.
COc1ccc(/C=N/c2nc3ccccc3n2CCN2CCCCC2)cc1OC	0.6	.
Cc1csc(NC(=O)/C=C\C(=O)O)n1	1.2	-0.236
COc1ccc(NC(=O)C2CSC(C)(C)N2C=O)cc1 (stereo not given)	-3.2	.
CCOC(=O)c1cccc(NC2=NC3(CCCCC3)N=C(N)N2)c1	0.2	.
CC(C)CNC(=O)c1c(N)n(/N=C/c2ccncc2)c2nc3ccccc3nc12	.	0.278
O=C(O)CNC(=O)c1cccc(C(F)(F)F)c1	.	-0.451
CCCC1Cc2[nH]c(=O)c(C#N)cc2CO1 (stereo not given)	1.3	-0.918
Cc1cccc(-n2c(O)c(C3=c4ccccc4=NC3=O)sc2=S)c1	1.3	.
Cc1ccc(C(=O)Oc2ccc3oc(=O)sc3c2)cc1	0.6	.
CC1=C(C(N)=O)C(c2ccc(C)o2)C(C(N)=O)=C(C)N1	-0.7	0.867
Cc1cc(C(=O)N/N=C2\C(=O)c3cccc4cccc2c34)c(C)o1	1.6	.
N=C1SC(c2ccccc2)C(=O)N1c1nccs1 (stereo not given)	3.2	-0.791
Nc1nc(=S)nc(-c2ccncc2)[nH]1	1.1	.
CC1=NNC(c2ccc(O)cc2)C1 (stereo not given)	-14.7	.
CCOC(=O)N1CCC(N2C(=O)c3ccc(C(=O)NCCOC)cc3C2=O)CC1	-3.2	1.79
Cc1nn(-c2ccccc2)c2c1-c1onc(C(=O)NCc3ccco3)c1CC2	0.5	-0.663
COCc1cc(=O)oc2cc(OC)ccc12	0.6	.
CC(CNC(=O)C1CCCN(C(=O)N2CCOc3ccccc32)C1)c1ccccc1 (stereo not given)	0.7	-1.06
COc1cccc(-c2nc(-c3ccccc3)[nH]c2-c2cccc(OC)c2)c1	0.5	.
